# Screens (PubChem BioAssay)
# NS1 function inh: qHTS Assay for Inhibitors of Influenza NS1 Protein Function; AID 2326, 2010; 0.4% of 270,000 active; Potency, µM (doses to about 46.1 µM), for inactives: top-dose activity, positive = more growth; S. cerevisiae slowed by influenza A NS1, growth recovery by OD600; active means well fitted rising curve with a large enough effect; inconclusive means small, poorly fitted or top-dose-only effect; inactive means no such curve, though single readings can be large or run the other way; note: nearly all actives have a fitted effect of over 50% in size
#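 In this qHTS, NS1 from influenza A is expressed in budding yeast, where it slows growth. Cells are switched from glucose to 2% galactose medium (pH 6.0, -URA), treated with compound, and growth recovery is read at OD600.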
# Lassa entry inh: qHTS for Inhibitors of binding or entry into cells for Lassa Virus. 1.2% of 300,000 active. Potency, µM (highest dose often 37.9 µM), inactives show top-dose activity change, negative = inhibition, most hits filed as inhibitors. Lassa virus pseudotype entry inhibition, cell reporter; control for the full effect not named in the record. AID 540256, 2011; active means well fitted inhibition curve with a large enough effect; inconclusive means small, poorly fitted or top-dose-only effect, or effect the other way; inactive means flat fitted curve, though single readings scatter; tested in HEK293 cells; note: % is set by controls: 0 for no effect and ±100 for the full control effect; nearly all actives have a fitted effect of over 50% in size; luciferase read-out
# RE007 growth inh: qHTS Assay for Inhibitors of the HIV-1 protein Vpr; 0.21% of 360,000 active; S. pombe RE007 Vpr strain, BacTiter-Glo ATP luminescence, 24 h; control for the full effect not named in the record; Potency, µM (doses to about 92.2 µM), inactives show at the top dose activity change, negative = less growth; active = well fitted falling curve with a large enough effect; inconclusive = small, poorly fitted or top-dose-only effect; inactive = no such curve, though single readings can be large or run the other way;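 note: % is set by controls: 0 for no effect and ±100 for the full control effect; nearly all actives have a fitted effect of over 50% in size; the assay follows cell death caused by Vpr and the record does not say whether a fall means rescue or toxicity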
#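 Fission yeast strain RE007, carrying one chromosomally integrated HIV-1 vpr copy, was seeded at OD 0.01 in PMG+AL medium with 23 nL pinned compound. After 24 h at 30 °C and 99% humidity, viability was read by BacTiter-Glo luminescence.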
# Cruzain inh Det: qHTS Assay for Promiscuous and Specific Inhibitors of Cruzain (with detergent); Cruzipain (Trypanosoma cruzi), P25779; purified cruzain, Z-FR-AMC fluorescence, 0.01% Triton; Potency, µM, for the others: max response, negative = inhibition, usual class: inhibitors; 0.43% of 200,000 active;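 note: plate controls were neutral wells for no effect and buffer without enzyme for full effect; nearly all actives have a fitted effect of over 40% in size; top concentration of the series not given in the record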
# Target sequence (P25779 123-467 limits assumed): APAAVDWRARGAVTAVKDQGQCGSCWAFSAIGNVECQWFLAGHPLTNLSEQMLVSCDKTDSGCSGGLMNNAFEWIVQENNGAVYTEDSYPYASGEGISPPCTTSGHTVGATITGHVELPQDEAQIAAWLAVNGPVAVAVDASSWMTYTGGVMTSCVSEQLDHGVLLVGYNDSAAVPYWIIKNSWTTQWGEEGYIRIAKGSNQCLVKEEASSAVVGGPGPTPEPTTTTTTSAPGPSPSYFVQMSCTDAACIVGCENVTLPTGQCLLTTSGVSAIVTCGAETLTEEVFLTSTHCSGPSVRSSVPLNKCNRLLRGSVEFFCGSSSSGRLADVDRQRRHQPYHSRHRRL
#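 Z-FR-AMC hydrolysis (2 uM substrate) by cruzain (1.5 nM) monitored kinetically at ex 360/em 450 nm after 15 min room-temperature compound exposure; 0.01% Triton X-100, pH 5.5, 5 mM DTT.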
# StopGo reporter: High Throughput Screening for Foot and Mouth Disease Virus Antivirals | human cells with a luciferase reporter of 2A StopGo recoding; control for the full effect not named in the record | Potency, µM (top dose mostly 57.9 µM), for the others: top-dose signal change, negative = less light | 1.2% of 410,000 active | AID 1159524, 2015; active = well fitted falling curve with a large enough effect; inconclusive = small, poorly fitted or top-dose-only effect; inactive = no such curve, though single readings can be large or run the other way; tested in HEK293T cells; note: % is set by controls: 0 for no effect and ±100 for the full control effect; nearly all actives have a fitted effect of over 45% in size; luciferase light after 4 h
# Cruzain noTriton: qHTS Assay for Promiscuous and Specific Inhibitors of Cruzain (without detergent); Potency, µM, without a hit: max response, negative = inhibition, usual class: inhibitors; purified cruzain, Z-FR-AMC fluorescence, no detergent; 2.3% of 200,000 active; Cruzipain (Trypanosoma cruzi), P25779;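 note: plate controls were enzyme without inhibitor for no effect and buffer without enzyme for full effect; nearly all actives have a fitted effect of over 40% in size; top concentration of the series not given in the record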
#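 Detergent-free condition (0.00005% Triton X-100) in acetate buffer pH 5.5 with DTT. 1.5 nM enzyme and compound were pre-mixed 15 min, then 2 uM Z-FR-AMC substrate added; reaction progress from fluorescence change between first and third reads (60 s).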
# SARS PLP yeast: qHTS of Yeast-based Assay for SARS-CoV PLP; Potency, µM (highest dose often 32.9 µM), inactives show at the highest dose activity, positive = growth rescue; 0.19% of 330,000 active; AID 485353, 2010; S. cerevisiae expressing SARS-CoV PLpro, growth rescue; control for the full effect not named in the record; active means well fitted rising curve with a large enough effect; inconclusive means small, poorly fitted or top-dose-only effect; inactive means no such curve, though single readings can be large or run the other way; note: 0% is about no effect; nearly all actives have a fitted effect of over 55% in size; growth read by luminescence after 48 h
# Marburg entry inh: qHTS for inhibitors of binding or entry into cells for Marburg Virus; Marburg virus pseudotyped entry inhibition, cell reporter; control for the full effect not named in the record; about a third of the inactives were read at about 46 µM; Potency, µM (top dose mostly 37.8 µM), for the others: at the top dose activity change, negative = inhibition, most hits filed as inhibitors; 1.8% of 300,000 active; AID 540276, 2011; active = well fitted inhibition curve with a large enough effect; inconclusive = small, poorly fitted or top-dose-only effect, or effect the other way; inactive = flat fitted curve, though single readings scatter; tested in HEK293 cells; about a fifth of its hits are not listed in these tables; note: % is set by controls: 0 for no effect and ±100 for the full control effect; luciferase read-out
# Starred values were filed as active, the others as inactive; ? = inconclusive; . = no result given; [ ] = remark or other dose. Unless noted, calls come from the whole dose curve; as a rule, active = well fitted curve in the direction sought with a large enough effect; inconclusive = small, poorly fitted or top-dose-only effect, or another doubt; inactive = no such curve, though single readings can be large; an effect the other way counts as inactive or inconclusive. Potency is the fitted concentration of half-maximal effect.
molecule	NS1 function inh	Lassa entry inh	RE007 growth inh	Cruzain inh Det	StopGo reporter	Cruzain noTriton	SARS PLP yeast	Marburg entry inh
CCn1c(=O)cc(SCC(=O)NCc2ccccc2OC)c2ccccc21	.	?	.	4.5%	-19%	-16%	.	-33%[46.1 µM]
Cc1ccc(S(=O)(=O)NC(C(=O)N2CCOCCOCCOCCOCC2)c2ccccc2)cc1 (stereo not given)	3%	1%	1%	.	7%	.	-1%	-7%[46.1 µM]
O=C(Nn1c(-c2ccc(Br)cc2)nc2ccccc2c1=O)c1cccnc1	.	16%	-4%	.	-15%	.	0%	?
COC(=O)Cc1c(O)ccn(Cc2ccccc2OC)c1=O	-17%	11%	3%	5.6%	-6%	-5%	-16%	2%
COc1cc(NC(=O)c2cc([N+](=O)[O-])ccc2N2CCOCC2)ccc1NC(=O)c1ccco1	5%	-4%	-10%	.	-20%	.	14%	?
Cc1ccc(CNC(=O)/C=C/c2ccc(S(=O)(=O)NCc3ccco3)cc2)cc1	0%	?	6%	-4.5%	-19%	?	-10%	-18%
COc1ccc2nc(SCC(=O)Nc3cc(OC)c(OC)cc3C(=O)O)c(C)cc2c1	8%	5%	2%	.	4%	.	-1%	?
CN1C(=O)Cc2cc(S(=O)(=O)CCC(=O)Nc3ccc(OC(F)(F)F)cc3)ccc21	.	25%[46.1 µM]	.	-1.2%	-2%	-10%	.	.
COc1ccc(/C=N/NC(=O)CCc2n[nH]c(=O)[nH]c2=O)cc1OC	8%	7%	0%	-0.9%	-15%	26%	-23%	15%
COc1cccc(OC)c1C(=O)Nc1ccc2c(c1)N(S(=O)(=O)c1cccs1)CCC2	3%	.	-12%	.	13%	.	3%	.
CC(C)=CC(O)C/C(C)=C/COc1ccc2ccc(=O)oc2c1 (stereo not given)	9%	.	7%	.	?	.	-2%	.
COc1cc(OC)c(C(=O)Oc2ccc3c(c2)OCO3)cc1OC	-47%	-3%	2%	1.0%	-3%	5%	3%	3%
CCC(C(=O)NCc1ccccn1)n1c2ccccc2c2nc(=O)cc(C)n21 (stereo not given)	5%	10%[46.1 µM]	9%	.	18%	.	?	12%[46.1 µM]
CC(Sc1nnc(-c2cccnc2)o1)C(=O)NC1CCCC1 (stereo not given)	.	4%	-13%	.	-12%	.	2%	-28%
COc1ccc(CCn2c(=S)[nH]c3cc(C(=O)NCc4ccco4)ccc3c2=O)cc1OC	?	?	11%	-22%	-18%	?	3%	?
CC(=O)c1ccc(NC(=O)CSc2nnc(NC(=O)NC3CCCCC3)s2)cc1	.	24%[46.1 µM]	.	-1.1%	3%	-7%	.	.
CCOC(=O)C(Oc1ccc2c(-c3ccccc3)cc(=O)oc2c1)c1ccccc1 (stereo not given)	20%	?	13%	-6.1%	-13%	-17%	-13%	?
O=C(CCCNC(=O)/C(=C/c1ccccc1F)NC(=O)c1ccccc1)OCc1ccccc1	-2%	-2%	9%	-11%	16%	-3%	-25%	1%[46.1 µM]
CN1CCN(c2ccccc2NC(=O)c2cc3ccccc3o2)CC1	-32%	2%	13%	3.8%	-1%	-11%	-2%	?
CCOC(=O)c1cnc2c(ccc3ccccc32)c1Nc1ccc(OCC)cc1	.	-7%[46.1 µM]	.	-1.1%	-1%	3%	.	.
O=c1cnn(Cc2ccc(Cl)c(Cl)c2)c2ccccc12	-13%	-29%	32%	.	0%	.	-12%	?
CC1CCCCC1NC(=O)c1c(O)nc2ccccn2c1=O (stereo not given)	.	8%	-24%	.	-15%	.	-1%	15%[46.1 µM]
Cc1ccc(C(=O)NCCCNC(=O)COc2ccc(Cl)cc2)cn1	-6%	-18%	15%	.	?	.	-1%	.
Cc1ccc(NC(=O)CSc2ncn[nH]2)cc1C	.	-25%[46.1 µM]	.	2.8%	6%	15%	.	.
CCCc1nnc(NC(=O)C(=O)NCCN(CC)CC)s1	1%	.	-18%	.	-2%	.	-1%	.
COc1cc(Cn2c(-c3ccc(O)c(OC)c3)nc3ccccc32)ccc1O	-10%	?	0%	.	-10%	.	2%	?
O=C(Nc1cccnc1)C1CCCN1S(=O)(=O)c1ccc(Cl)c(Cl)c1 (stereo not given)	-4%	-15%	6%	4.2%	.	-2%	3%	-24%
Cc1nnc(SCC(=O)NCc2ccccc2Cl)c2nn(-c3ccccc3)c(C)c12	.	-1%[46.1 µM]	.	0.3%	?	-12%	.	.
CCCN1C(=O)c2ccc(C(=O)Nc3ccccc3C(=O)O)cc2C1=O	-2%	21%[46.1 µM]	-9%	.	?	.	-1%	?
Cc1c(Cl)ccc2sc(N3CCN(C(=O)C(C)C)CC3)nc12	.	0%[46.1 µM]	.	-10%	0%	?	.	.
COc1ccc(C)cc1N(CC(=O)Nc1ccc(S(=O)(=O)N2CCCC2)cc1)S(C)(=O)=O	5%	-13%	1%	.	0%	.	-5%	-15%
CCc1nnc(NC(=O)CSc2ncc(-c3ccccc3)[nH]2)s1	14%	0%	24%	2.7%	35%[activator]	0%	-7%	9%
N#CC1(c2ccccc2)CCN(C2CC(=O)N(c3cccc(F)c3)C2=O)CC1 (stereo not given)	-6%	5%	?	.	-27%	.	-5%	14%[46.1 µM]
O=C(COC(=O)c1cnccn1)Nc1ccc2c(c1)OCO2	?	1%	11%	1.2%	22%	-21%	-7%	15%
CC(=O)N1CCN(c2ccnc3cc(Cl)ccc23)CC1	-8%	17%[46.1 µM]	-15%	.	-13%	.	-1%	0%[46.1 µM]
Cc1ccc(C(=O)N(CC(=O)Nc2sc(C)c(C)c2C(N)=O)C2CCCC2)cc1	3%	?	-20%	.	?	.	-3%	?
CCCCn1nc2cc(C(=O)NCCc3ccc(C)cc3)ccc2c1OCC	-55%	.	12%	0.8%	-25%	10%	5%	.
COc1ccc(NC(=O)CSc2ncnc3c2cnn3Cc2ccccc2)cc1OC	-6%	-13%	-2%	-3.4%	-28%	13%	1%	?
Cn1cc(C(N)=O)c2ccccc21	-1%	.	-1%	.	-7%	.	-5%	.
C[N+](C)(C)CCOC(=O)C1(c2ccccc2)CCCC1	9%	7%	-2%	4.7%	-22%	-9%	4%	?
CC1CC(C)CN(S(=O)(=O)N2CCCC(C(=O)NC3CCCCC3)C2)C1 (stereo not given)	-6%	.	0%	.	4%	.	8%	.
CCN(C(=O)C(C)OC(=O)C1C(C(=O)OC)=C(C)NC(C)=C1C(=O)OC)c1ccccc1 (stereo not given)	.	?	-3%	.	-2%	.	2%	-1%[46.1 µM]
CCNC(=O)C(Cc1ccccc1)NC(=O)OCc1ccccc1 (stereo not given)	2%	3%[46.1 µM]	11%	.	-9%	.	5%	17%[46.1 µM]
CCC1(C)OC(=O)N(CCCn2ccnc2C)C1(C)O (stereo not given)	6%	3%	13%	3.8%	9%	-1%	0%	11%[46.1 µM]
COCCNC(=O)C1CCC(=O)N1S(=O)(=O)c1ccc(C)cc1 (stereo not given)	0%	-2%	31%	.	-11%	.	-4%	17%
CCN(CC)S(=O)(=O)c1cc(Cl)ccc1OC	-3%	-14%	7%	.	-15%	.	1%	1%[46.1 µM]
CN(CCc1cn[nH]c1)Cc1nc(C(c2ccccc2)c2ccccc2)no1	2%	-22%[46.1 µM]	-7%	.	-24%	.	-3%	-11%[46.1 µM]
CCOC(=O)CCC(NC(=O)c1ccc(NCN2C(=O)CCC2=O)cc1)C(=O)OCC (stereo not given)	10%	?	-12%	8.8%	10%	5%	.	-9%
Cc1ccccc1OCC(=O)NCCC(=O)O	1%	10%	5%	1.4%	.	1%	0%	10%
CCOC(=O)c1cnc2ccc(Cl)cc2c1Nc1ccc(N2CCOCC2)cc1	.	?	.	-2.3%	22µM*	-3%	.	-3%[46.1 µM]
O=C(c1cn(-c2ccccc2)nc1-c1ccc(Br)cc1)N1CCOCC1	5%	5%	.	-4.7%	-10%	?	-15%	-2%
Cc1ccc(C2NNC(=O)C2NC(=O)c2ccccc2)cc1 (stereo not given)	-1%	11%	5%	-4.8%	12%	0%	4%	?
Brc1ccc(-n2c(SCc3nc4ccccc4[nH]3)nnc2-c2ccncc2)cc1	10%	-1%	26%	-3.6%	-6%	-3%	-9%	2%
COc1ccc(NCC(=O)N/N=C(\C)c2cc3ccccc3o2)cc1	.	?	-11%	.	13%	.	-4%	?
Cc1nnc(C)n1/N=C/c1ccc(-c2ccccc2)cc1	-49%	-8%	-3%	-1.8%	3%	-4%	-6%	-4%
CCc1ccc(CN2CCC(Oc3ccc(C(=O)N4CCCCC4)cc3)CC2)cc1	-23%	-1%	-13%	.	-26%	.	-6%	?
O=C(O)CSc1nc(-c2ccccc2)nc2c1oc1ccccc12	-192%	12%	-13%	-5.6%	36%[activator]	12%	-3%	?
Cc1ccc2cc(C(c3nnnn3C3CCCC3)N(Cc3ccccc3)Cc3ccco3)c(=O)[nH]c2c1 (stereo not given)	2%	?	5%	0.7%	.	?	2%	?
NS(=O)(=O)c1ccc(CCNC(=O)c2ccc([N+](=O)[O-])s2)cc1	3%	?	-15%	.	0%	.	-4%	?
COc1ccc(-c2nn3c(=O)cc(CN4CCN(C(=O)COc5ccc(F)cc5)CC4)nc3s2)cc1	.	7%[46.1 µM]	.	1.3%	-11%	1%	.	.
COc1ccc(NC(=S)N2CCN(C/C=C/c3ccccc3)CC2)cc1OC	-8%	-18%	-9%	3.9%	?	-3%	-7%	-19%
COc1ccc(C(=O)O)cc1S(=O)(=O)N(C)C	.	?	12%	.	-22%	.	0%	14%[46.1 µM]
CC(C#N)Sc1ncnc2sc3c(c12)CCC3 (stereo not given)	-3%	0%	-5%	-6.0%	.	-12%	11%	12%

# Compounds were not picked by outcome, and some 4.6% of all compounds hit somewhere here.
